High-throughput results: PubChem, several laboratories
RanGTP-Impb inh: inhibitors of RanGTP-importin-beta interaction, primary screen, biochemical, FRET, CFP-Ran, YFP-importin-beta, homogeneous. AID 2216, 2009. inhibition, % (no concentration beside the values). 1.1% of 300,000 active. cell-free CFP-Ran/YFP-importin-beta FRET ratio. Ran GTPase (GTP-bound) - importin-beta complex;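 active means most replicates above 15%; inconclusive means exactly half above 15%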;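 further: 0% = DMSO wells and 100% = Ran loaded with GDP instead of GTP; wells of about 40 µL received 100 nL stock; the first replicate is given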
Vif A3G: inhibitors of Vif binding to APOBEC3G peptide, primary screen, biochemical, TR-FRET, GST-Vif 1-94, biotin-A3G peptide, dose response retest (AID 1117319); Virion infectivity factor (Human immunodeficiency virus type 1 group M subtype B (isolate …; TR-FRET GST-Vif / biotin-A3G peptide binding; higher % means a stronger effect; test concentration not given here; strong numbers were not always called active; inhibition, %, or IC50 in µM where a hit was titrated; 0.57% of 260,000 active;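 active means above the screen mean plus three standard deviations and confirmed in dose response; inconclusive means results disagree or hit not tested in dose response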;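 further: Vif residues 1-94 fused to GST binding biotinylated APOBEC3G peptide 110-148; 0% = full assay without inhibitor and 100% = GST in place of GST-Vif; retest series ran down from 100 µM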
Calb FLC: C. albicans growth inhibition with fluconazole, primary screen, CaCi-2 strain, Alamar Blue fluorescence; growth inhibition, % (concentration not given with the values); C. albicans CaCi-2 (fluconazole-resistant clinical isolate) + fluconazole, 48 h; 0.57% of 300,000 active; AID 1979, 2009;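 active means most replicates above 75%; inconclusive means exactly half above 75%; inactive means most below 75%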;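 further: all wells also contain fluconazole at 8 µg/ml as a sub-toxic cotreatment; 0% = median of DMSO wells and 100% = median of geldanamycin control wells; wells of about 8 µL received 7.5 nL stock; the first replicate is given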
MLL AF4-AF9 inh: inhibitors of AF4 peptide binding to AF9, primary screen, biochemical, AlphaScreen, biotin-AF4 peptide, FLAG-AF9, single point; 0.47% of 350,000 active; AID 651704, 2012; Protein AF-9 (Homo sapiens), P42568; inhibition, % at 10 µM;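 active means every replicate reaching a set inhibition limit, whatever the replicate mean, cut at about 25% in these data; inconclusive means mean inhibition reaches that limit but some replicates miss it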;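 further: 0% = plate neutral control median and 100% = total signal loss; the record names both 10 and 1 µM as test concentration; the first replicate is given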
Target sequence (P42568 whole entry, looked up): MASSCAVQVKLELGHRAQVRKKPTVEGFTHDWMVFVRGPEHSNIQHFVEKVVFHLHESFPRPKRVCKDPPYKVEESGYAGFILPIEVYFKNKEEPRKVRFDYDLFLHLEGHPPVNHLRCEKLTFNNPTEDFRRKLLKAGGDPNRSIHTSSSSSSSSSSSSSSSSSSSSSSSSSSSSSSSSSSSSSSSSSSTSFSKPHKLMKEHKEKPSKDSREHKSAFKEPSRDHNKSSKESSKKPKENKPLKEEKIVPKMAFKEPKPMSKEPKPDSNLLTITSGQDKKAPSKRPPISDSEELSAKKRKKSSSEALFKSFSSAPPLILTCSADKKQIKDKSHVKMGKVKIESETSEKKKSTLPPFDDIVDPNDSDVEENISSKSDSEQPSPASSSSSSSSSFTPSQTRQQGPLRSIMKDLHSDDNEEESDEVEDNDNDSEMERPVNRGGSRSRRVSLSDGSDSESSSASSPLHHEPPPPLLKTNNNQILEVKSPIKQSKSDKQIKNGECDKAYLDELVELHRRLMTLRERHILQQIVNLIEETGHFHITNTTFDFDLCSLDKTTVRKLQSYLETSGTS
Beta cell apopt: inhibitors of cytokine-induced beta cell apoptosis, primary screen, luminescence | INS-1E cytokine-induced death, ATP luminescence, 48 h; percent of positive-control rescue, neutral wells zero | protection from apoptosis, % (no concentration beside the values) | 0.8% of 300,000 active;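 active means all replicates at 75% or more, or half of them and the mean; inconclusive means half reach 75% but not the mean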;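 further: 0% = cytokine-treated negative control wells and 100% = positive control rescue; higher means more ATP so stronger rescue from cytokine killing; wells of about 40 µL received 100 nL stock; the first replicate is given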
rRNA inh HTS: reduced GFP signal of wild-type E. coli, primary screen, bacterial rRNA inhibitor project, GFP/RFP fluorescence, OD600, single point; GFP signal change (wild-type ribosome), % (test concentration not listed); 1.6% of 350,000 active; E. coli WT GFP vs humanized-ribosome RFP mutants, 24 h; active compounds read low; DMSO median 0, no signal -100;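 active means significant combined selectivity score with lowered wild-type GFP, culture density cut under 30%, mutant RFP and density less affected; inactive means any of these conditions unmet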; further: one replicate is shown; some compounds called inactive have numbers as strong as hits
T cruzi repl: inhibitors of intracellular T. cruzi growth, primary screen, luminescence, NIH3T3 host cells. inhibition, % (no concentration beside the values). 1.4% of 300,000 active. T. cruzi beta-gal in NIH3T3, 90 h;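 active means mean inhibition across valid replicates above about 55%, limit read from the data; inconclusive means mean below that limit but half or more replicates reach it; inactive means mean below it, under half of replicates reach it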;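 further: signal also drops with host cell toxicity which is not excluded here; 0% = plate median of DMSO wells and 100% = zero luminescence signal; higher percent means less beta-gal luminescence so fewer parasites; stock transfer was 50 nL into about 50 µL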
A1 inh: caspase 3/7 activation in MEF A1-2A-BIM cells, primary screen, A1 inhibitor project, cell-based, luminescence, HTS; Caspase-Glo 3/7 luminescence, 3 h; percent of clofoctol response, vehicle zero; caspase activation, % (concentration not given with the values); 0.066% of 330,000 active; AID 2462, 2010;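 active means over half of replicate activation scores above 10%, or exactly half above 10 with the replicate mean above 10; inconclusive means replicate mean below 10 yet half the replicates above 10; inactive means over half of replicates below 10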;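 further: wells of about 30 µL received 50 nL stock; many hits fall short of the cut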
rRNA inh HTS OD600: further read-out of rRNA inh HTS, marked with its call; OD600 change, %; measured here: OD600 growth;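 optical density of the mix in the first replicate; 0 = DMSO median and -100 = no signal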
rRNA inh HTS RFP: second read-out of rRNA inh HTS, no call of its own (marks repeat the call); RFP signal change, %; measured here: RFP humanized mutant strains;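 first replicate; 0 = DMSO median and -100 = no signal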
Starred values were filed as active, the others as inactive; ? = inconclusive; . = not tested or not shown; & = joins results of further samples. Some of the compounds tested, so the mix of outcomes need not match the whole.

#	smiles	rRNA inh HTS	RanGTP-Impb inh	MLL AF4-AF9 inh	Beta cell apopt	A1 inh	T cruzi repl	Calb FLC	rRNA inh HTS OD600	rRNA inh HTS RFP	Vif A3G
1	O=C(CCn1nc(-c2ccc(Cl)cc2)c2ccccc2c1=O)NCC1CCCO1 (stereo unspecified)	.	-0.4	.	-1	-0.6	10	0	.	.	-2%
2	O=S1(=O)CCC(NC(=S)Nc2ccc3ccccc3c2)C1 (stereo unspecified)	-20	-2.9	-0.9	-2	0.9	-10	-3	-16	0.6	-10%
3	Cc1cc(C(=O)CSc2nnc(NCc3ccccc3)s2)c(C)n1C	.	-2.1	.	2	-1.0	-14	2	.	.	12%
4	O=C(Nc1nccs1)c1ccc(COc2ccccc2Cl)o1	1	1.7	-1.2	-2	0.5	-9	47	5	0.6	0%
5	C/C(=N/NC(=O)c1sc(NS(=O)(=O)c2ccccc2)nc1C)c1ccc(F)cc1	-16	?	-7.2	-2	-0.1	-23	31	-11	4.9	.
6	Cc1csc(NC(=O)CSc2nnc(C)n2Cc2ccco2)n1	.	-0.2	.	-4	-1.6	-3	5	.	.	-3%
7	COc1ccc(C2C(C(=O)N3CCCCC3)CCC(=O)N2c2cc(OC)c(OC)c(OC)c2)cc1 (stereo unspecified)	.	5.1	.	-1	0.5	-6	1	.	.	9%
8	CC(=O)NNc1nc(-c2ccccc2)cs1	3	-1.6	0.6	-3	-0.4	4	3	-7	0.6	-4%
9	O=C(CN1C(=O)NC2(CCCC2)C1=O)Nc1cccc(Cl)c1	11	?	-11	-10	0.4	-5	2	20	1.5	-2%
10	CN(C)c1ccc(-c2noc(C3CCN(S(=O)(=O)c4cccc(Cl)c4)CC3)n2)cc1	.	3.0	.	.	0.1	.	23	.	.	10%
11	Cc1nn(CC(=O)N2CCN(Cc3ccccc3)CC2)c(=O)c2ccccc12	.	-0.6	.	1	-0.5	1	-3	.	.	-8%
12	COc1cc2c(cc1OC)CN(C(=S)Nc1ccccc1)CC2	.	5.3	.	-8	-0.1	3	-1	.	.	-6%
13	NC(=O)c1ccsc1NC(=O)COC(=O)CCOc1ccccc1	-23*	-0.1	-1.1	-3	-0.8	5	0	-9.6*	-3.5*	5%
14	CCOC(=O)N/N=C(/c1ccccc1)C1CCCCC1	16	0.4	1.1	-2	0.0	-3	-4	13	1.0	-5%
15	CC(C)N1CC(C(=O)Nc2ccc(S(=O)(=O)N3CCCCC3)cc2)CC1=O (stereo unspecified)	29	-0.7	0.6	1	0.2	-4	-10	5	6.5	9%
16	CCOC(=O)CC(=O)CSc1nc2c(cc1C#N)CCCCCC2	.	14	.	.	0.0	8	?	.	.	6%
17	CCOC(=O)COc1ccc(S(=O)(=O)Nc2ccc3c(c2)OCO3)cc1	.	-0.8	.	-7	0.1	-1	-13	.	.	6%
18	O=C(CN1CCN(c2ncc(C(F)(F)F)cc2Cl)CC1)Nc1ccc2c(c1)OCO2	-6	6.0	-2.4	2	0.0	-7	0	-3	2.4	14%&-8%
19	O=C(CN(c1cc(Cl)ccc1Cl)S(=O)(=O)c1ccccc1)N1CCOCC1	4	-2.5	0.0	.	-0.4	11	12	-5	-1.6	.
20	O=C(O)c1cccc(-n2cccc2/C=C2/NC(=O)N(Cc3ccccc3F)C2=O)c1	9	-7.3	1.8	-1	-1.9	1	-4	-2	1.7	?
21	O=C1c2ccccc2NC(c2ccc(-c3cccs3)o2)N1O (stereo unspecified)	2	.	9.8	2	-2.6	.	.	11	0.0	.
22	N/C(=N\OC(=O)COc1ccc(Br)cc1)c1cccc([N+](=O)[O-])c1	21	0.6	-3.3	.	-1.1	-6	4	16	0.9	.
23	CCCn1c(C)cc(/C=C(\C#N)C(=O)OCC(=O)Nc2ccc(OC)c(Cl)c2)c1C	.	-0.6	.	-1	-0.5	8	1	.	.	9%
24	Cc1nc(NC(=O)CSc2nc(N)cc(N)n2)sc1C	-8	-1.9	1.2	5	-0.4	-7	-23	-7	-2.8	.
25	Cc1cc2cc(C)c3nnc(SCc4ccccn4)n3c2cc1C	.	-1.0	-1.6	6	0.9	-11	-1	.	.	.
26	Cc1cc(=O)[nH]c(SCC(=O)Nc2ccc(S(=O)(=O)N3CCCCC3)cc2)n1	.	?	.	4	?	-6	0	.	.	?
27	O=C(NCCCN1CCOCC1)C1CCC(=O)N1C1CCCCC1 (stereo unspecified)	.	-2.3	.	-7	0.0	-14	23	.	.	1%
28	O=C(O)c1ccc(N/N=C/c2ccc(-c3ccc(Cl)cc3Cl)o2)cc1	-33	88*	9.6	-4	-0.6	-13	-9	-31	-8.5	12%
29	CC(C)n1cnnc1SCC(=O)NNC(=O)COc1ccc(Cl)cc1	19	0.0	-1.3	6	-0.6	-5	-4	8	11	2%
30	CCC(C)(C(=O)NC1CCCCC1)N(Cc1ccco1)C(=O)c1ccc2c(c1)OCO2 (stereo unspecified)	-18	1.4	.	-3	.	-2	1	-22	-11	2%&2%
31	CC(OC(=O)CN1C(=O)COc2ccccc21)C(=O)NCc1ccc(F)cc1 (stereo unspecified)	5	5.1	0.2	4	0.4	-15	26	10	6.2	.
32	CCc1ccc(N/C(SC)=C(/C#N)C(N)=O)cc1	-13	1.9	-79	-8	0.1	-2	-17	-1	-9.2	3%
33	CCOc1ccc(/C=C/C(=O)OCC(=O)c2ccccc2OC)cc1OC	.	5.2	.	.	0.1	20	21	.	.	-1%
34	CC(C)Oc1ccc(C2CC(=O)NC2=O)cc1 (stereo unspecified)	2	-1.5	1.1	-1	-1.6	-2	-4	-2	-3.5	-1%
35	COc1ccc(C(=O)N(C)Cc2ccon2)cc1OC1CCN(C(C)C)CC1	14	1.2	1.2	.	-0.3	-4	-1	24	-0.7	-2%
36	c1ccc(-c2cnc(CN3CCN(c4ccccc4)CC3)o2)cc1	-1	-3.6	-3.5	0	-0.3	5	-6	-7	-3.1	-1%
37	Nc1c(C(=O)NC2CCCCC2)nsc1C(=O)OCC(=O)NC1CCCCC1	.	3.2	.	-1	-2.1	4	-2	.	.	-11%
38	O=S(=O)(NCc1cccc(C(F)(F)F)c1)NCc1ccccc1F	2	-3.2	-3.7	0	-0.4	-5	14	0	3.1	-8%
39	COc1ccc(-c2noc(COc3ccc4c(c3)OCO4)n2)cc1OC	.	3.6	.	-7	0.6	-3	0	.	.	-6%
40	CC(Oc1ccc(Cl)cc1Cl)C(=O)NNC(=O)C(=O)N1CCCCC1 (stereo unspecified)	.	3.3	.	-11	0.3	-3	-3	.	.	.
41	CCOC(=O)C(=CNc1nc(-c2ccccc2)c(C(=O)Nc2ccc(-c3ccccc3)cc2)s1)C(=O)OCC	2	-1.3	0.8	.	0.2	-11	3	4	0.0	-17%
42	CC1CCN(S(=O)(=O)c2ccc3[nH]c(=O)cc(C(=O)O)c3c2)CC1	.	?	.	-4	0.4	-9	1	.	.	-3%
43	Cc1ccc(C(=O)N[C@H](C(=O)OCC(=O)NC2CCS(=O)(=O)C2)C(C)C)cc1 (stereo partly specified)	.	-5.2	.	0	0.5	-15	-3	.	.	-3%
44	CC(C)(C)OC(=O)C[C@H]1C/C=C\C[C@@H](CC(=O)N(CCO)Cc2ccccc2)C(=O)N[C@H](C(C)(C)C)COC1=O	-5	.	-5.5	-4	0.1	.	.	-7	9.1	.
45	COc1cccc(C2Cc3ccccc3C(=O)O2)c1 (stereo unspecified)	.	0.5	.	-3	-1.0	-6	-8	.	.	-3%
46	COC(=O)c1c(NC(=O)c2cccnc2)sc(C(=O)N(C)C)c1C	1	-2.6	1.2	1	0.4	7	58	12	4.1	-3%
47	CC1(C)CC(=O)c2cnc(NC(=O)CSC(=S)N3CCCCC3)nc2C1	10	-4.0	.	-2	0.7	-2	-5	12	-0.8	-4%
48	COc1ccc(Cn2c(=O)[nH]c3cc(C(=O)NCCCN4CCCCCC4)ccc3c2=O)cc1	9	2.4	6.9	-8	?	3	0	-5	2.9	-6%
49	O=C(O)/C=C/C(=O)Nc1ccccc1SC(F)(F)C(F)(F)C(F)(F)F	8	-1.5	-0.5	-2	0.5	0	-10	10	-0.3	-3%
50	Cc1csc(NC(=O)CSc2nnc(-c3cc(C)on3)o2)n1	0	1.6	-2.4	-22	0.3	-22	-1	2	0.4	?
51	COC(=O)c1ccc(NC(=S)NN2CCCCC2c2cccnc2)cc1 (stereo unspecified)	-27*	11	.	.	0.0	.	0	-1.2*	-4.6*	.
52	CCOC(=O)c1ccc(S(=O)(=O)N2CCN(C(=O)c3ccccn3)CC2)cc1	5	.	-0.9	-7	-0.9	.	.	12	-0.3	.
53	COCCN1CCN(C(=O)C2CCC(=O)N(Cc3ccccc3OC)C2)CC1 (stereo unspecified)	5	0.0	-3.9	3	0.3	-14	0	10	-0.4	3%
54	COc1ccc(OCCn2ccnc2)cc1	22	-1.7	1.2	-2	1.1	0	-2	14	-1.3	.
55	O=C1C(=O)N(CCN2CCOCC2)C(c2ccc([N+](=O)[O-])cc2)/C1=C(/O)c1ccc2c(c1)OCO2 (stereo unspecified)	-5	7.3	-4.7	-6	-0.2	-5	-1	9	1.5	.
56	O=C(CCn1nc(-c2ccccc2)c2ccccc2c1=O)NN1CCOCC1	9	-1.9	-0.3	-1	0.2	-8	15	2	-3.2	-6%
57	CC(Sc1nc2ccccc2n1C)C(=O)Nc1ccc(N2CCOCC2)cc1 (stereo unspecified)	-23*	5.9	4.6	4	0.4	-9	2	-18*	-0.9*	.
58	COc1ccc(CNC(=O)c2coc(=O)c3ccccc23)c(OC)c1	1	-1.4	-6.3	-3	-0.3	-20	-19	-2	0.4	-3%
59	C#CCN(C)CC/C=C1\c2ccccc2CSc2ccccc21	.	-2.2	.	3	-0.3	3	.	.	.	12%
60	CN1C(=O)C(O)(C2OC(C)(C)CCC2=O)c2ccccc21 (stereo unspecified)	.	0.5	.	-4	0.2	-12	-31	.	.	32%
61	COc1cc(NC(=O)C2=C(C)OCCS2)c(Cl)cc1C(=O)NCCN(C)C	6	0.4	7.6	-2	-0.5	4	-13	-2	5.3	-2%
